Screening data (PubChem)
TRPML1 blocker: blocks the human TRPML1 channel; Q9GZU1; TRPML1-inducible cells, Ca2+ dye fluorescence, FDSS; hits give low values; inhibition of EC80 agonist-evoked calcium signal; activity change, negative = inhibition, % (test concentration not listed); 390,000 compounds, 0.02% hits; AID 624415; in the data active means activity change below about -50%; inconclusive means about -30% to -50%; inactive means above about -30%;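 also: stimulus is agonist 54-4 at its EC80 concentration; % is scaled to controls: 0 for no effect and ±100 for the full control effect; compound concentration not given in the record; the text of the record puts the active cut at -80%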
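Calcium fluorescence in TRPML1-DL cells induced overnight with Tet: a 110 s read after compound pin addition, then a 110 s antagonist read after challenge with 54-4 at 4 uM final (EC80).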
D2 ag: activates the human D2 dopamine receptor. P14416. DiscoveRx PathHunter D2 beta-arrestin, luminescence, 90 min; 100% = 57 uM dopamine signal. activation, % (test concentration not listed). 360,000 compounds, 0.084% hits. AID 624465; in the data active = activation above about 40%; inconclusive = about 15% to 40%; inactive = below about 15%; also: compound concentration not given in the record; the text of the record calls up to 30% inactive
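DiscoveRx PathHunter D2 beta-arrestin cells (2,100/well) attached overnight, then compound-stimulated 90 min at 37 C in HBSS/10 mM HEPES/0.1% Tween-20 buffer; beta-galactosidase complementation read by luminescence after 1 h at ambient temperature. Dopamine 57 uM final (EC100) as control.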
TRPML1 agonist: activates the human TRPML1 channel | TRPML1-expressing cells, Ca2+ dye fluorescence, FDSS; host cell line not named in the record; reference of the full effect not given here | activation, % (no concentration beside the values) | 410,000 compounds, 0.12% hits | AID 624414; in the data active = activation above about 50%; inconclusive = about 30% to 50%; inactive = below about 30%; also: 0% is about no effect; the text of the record puts the active cut at 80%
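In this qHTS format, compounds were pin-transferred onto Ca8-dye-loaded TRPML1-DL cells induced with Tet overnight, and intracellular Ca2+ fluorescence was recorded kinetically for 110 s after a 10 s baseline. A subsequent 4uM final 54-4 (EC80) addition followed by a second 110 s read served as the antagonist phase.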
Six1-Eya2 blk: blocks human Six1 binding to Eya2; Q15475+O00167; AlphaScreen GST-Six1/His-Eya2 binding, biochemical; hits give low values; control for the full effect not named in the record; activity change, % (test concentration not listed); 360,000 compounds, 0.56% hits; in the data active = activity change below about -65%; inconclusive = about -30% to -65%; inactive = above about -30%; also: % is scaled to controls: 0 for no effect and ±100 for the full control effect
Target sequence (O00167 whole entry, looked up): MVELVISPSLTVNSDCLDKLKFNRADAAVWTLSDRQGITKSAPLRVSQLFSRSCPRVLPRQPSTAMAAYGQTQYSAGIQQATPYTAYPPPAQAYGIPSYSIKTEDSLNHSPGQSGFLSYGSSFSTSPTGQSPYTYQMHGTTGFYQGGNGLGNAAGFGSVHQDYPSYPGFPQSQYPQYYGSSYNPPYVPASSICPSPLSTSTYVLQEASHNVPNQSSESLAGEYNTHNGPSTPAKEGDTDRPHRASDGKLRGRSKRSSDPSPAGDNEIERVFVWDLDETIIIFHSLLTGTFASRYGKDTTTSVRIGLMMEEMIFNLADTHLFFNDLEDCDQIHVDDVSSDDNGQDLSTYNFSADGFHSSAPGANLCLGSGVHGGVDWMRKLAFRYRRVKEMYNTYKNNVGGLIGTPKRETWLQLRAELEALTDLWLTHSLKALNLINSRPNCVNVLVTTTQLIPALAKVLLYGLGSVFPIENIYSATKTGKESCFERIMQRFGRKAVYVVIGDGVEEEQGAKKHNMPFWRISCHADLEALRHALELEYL
Target sequence (Q15475 whole entry, looked up): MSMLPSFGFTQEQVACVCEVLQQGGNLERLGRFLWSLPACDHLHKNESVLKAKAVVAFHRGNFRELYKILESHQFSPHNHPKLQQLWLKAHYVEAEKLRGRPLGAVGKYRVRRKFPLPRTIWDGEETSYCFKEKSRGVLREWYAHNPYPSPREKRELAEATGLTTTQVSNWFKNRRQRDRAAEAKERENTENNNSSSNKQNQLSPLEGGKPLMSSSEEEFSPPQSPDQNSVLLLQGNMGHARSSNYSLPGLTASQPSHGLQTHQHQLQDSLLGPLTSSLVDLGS
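AlphaScreen with GST-Six1 and His-Eya2 (5X mix: 250 nM and 500 nM), glutathione donor and nickel acceptor beads; buffer 50 mM Tris pH 8.0, 300 mM NaCl, 1 mM TCEP; 1 h at 37 C in the dark.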
PINK1 expr mod: changes PINK1 expression; PINK1 immunofluorescence, high-content cytometry, 24 h; Potency, µM (doses to about 76.6 µM), for inactives: at the highest dose activation (PINK1 increase), most hits filed as activators; 410,000 compounds, 0.2% hits; AID 624263; active = well fitted activation curve with a large enough effect; inconclusive = small, poorly fitted or top-dose-only effect; inactive = flat fitted curve, though single readings scatter; cell line not stated here;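 also: potency is read from the fitted curve at half-maximal effect; % of control where 0% means no effect; nearly all actives have a fitted effect of over 65% in size; a mitochondrial uncoupler was the plate control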
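Stable cell line, 250 cells/well, 12 h attachment; compounds pinned at 5 concentrations, 24 h; CCCP control. Fixed with nuclear dye, primary antibodies 12 h at 10 degrees C, secondary plus cell stain; laser-scanning cytometer read.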
CtBP-E1A inh: inhibitors of CtBP/E1A interaction. AlphaScreen GST-E1A/His-CtBP binding, 1536-well; hits give low values; control for the full effect not named in the record. activity change, % (test concentration not listed). 340,000 compounds, 0.49% hits. AID 651724; in the data active means activity change below about -65%; inconclusive means about -30% to -65%; inactive means above about -30%; also: % is scaled to controls: 0 for no effect and ±100 for the full control effect
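Protein mix (5X: 125 nM each GST-E1A, His-CtBP) was incubated with pinned compound 2 h at 37 deg C in dark, in 50 mM Tris pH 8.0 buffer with 300 mM NaCl. Glutathione donor and nickel acceptor beads followed; AlphaScreen signal read after 1 h.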
Starred values were filed as active, the others as inactive; u = inconclusive; x = not tested or not shown; & = joins results of further samples; [ ] = dose if it differs, or a comment.

Below each SMILES: TRPML1 blocker, D2 ag, TRPML1 agonist, Six1-Eya2 blk, PINK1 expr mod, CtBP-E1A inh
- Cc1ccc2cc(CCNS(=O)(=O)c3ccc(F)cc3)c(=O)[nH]c2c1
 : 12, -5.2, -1.3, -3, -0.1%, 0
- Cc1noc(C)c1COc1ccccc1C(=O)N(C)CC(=O)Nc1cccc(F)c1
 : 12, -8.4, -0.8, 3, 0.7%, 18
- CCN1CCC(NC(=O)Nc2cccc(C(F)(F)F)c2)CC1
 : 38, -1.7, 0.4, -4, 0.5%, 11
- O=C(c1c[nH]c(C(=O)C(Cl)(Cl)Cl)c1)c1ccc(F)cc1F
 : 4, -1.2, -0.4, 6, -1.2%, x
- O=C(COc1ccc(F)cc1)N1CCCc2ccccc21
 : -14, -5.9, -1.1, 13, 1.5%, x
- CCSc1nnc(NC(=O)Cc2ccccc2OC)s1
 : 24, 0.3, -0.4, 23, 4.3%, 7
- CCC(=O)c1ccc(OCc2ccccc2)c(OC)c1
 : -24, 3.3, 0.4, 24, 4.1%, 25
- CN(Cc1c(C(=O)N/N=C/c2ccccc2F)nnn1-c1nonc1N)c1ccccc1
 : 10, 5.5, 1.8, -13, 0.7%, x
- CC(C)CCn1nnnc1C(c1ccccc1)N1CCN(C)CC1 (stereo not given)
 : 7, -6.3, -0.5, -3, 1.2%, 7
- OC(Cc1ccccc1Br)c1ncc(-c2cccc(C(F)(F)F)c2)[nH]1 (stereo not given)
 : x, 1.1, -0.2, -12, 11%, -12
- COc1ccccc1C(NC(=O)C1CCN(CCOc2ccccc2)CC1)c1ccccn1 (stereo not given)
 : x, -4.6, -0.8, -1, 2.0%, 2
- O=C(Nc1ccc(-c2nc3ccccc3s2)c(O)c1)C1=COCCO1
 : 6, -8.9, -0.2, 1, u, 6
- CN(C1CCCCC1)S(=O)(=O)c1ccc2c(c1)c(=O)c(C(=O)NCc1ccc(F)cc1)cn2C
 : 12, x, -0.9, x, 3.7%, x
- COc1cccc(Nc2ccc(Nc3cccc(OC)c3)nn2)c1
 : 2, -4.9, 2.5, -17, 5.1%, -1
- COc1ccc2oc(C(=O)N3CCN(S(=O)(=O)c4cccc([N+](=O)[O-])c4)CC3)c(C)c2c1
 : 17, 3.1, 0.6, -18, 1.1%, -16
- CCc1cc(C(=O)Nc2cc(S(=O)(=O)N(C)C)ccc2C)sc1C
 : -3, -1.2, 0.1, -1, -0.1%, x
- COc1ccc(Nc2ncnc3ccccc23)c(OC)c1
 : 0, -1.2, 2.3, 0, 0.8%, -4
- CCOc1ccc(C(=O)Nc2ccc3nc(Nc4cccc(C(F)(F)F)c4)cc(C)c3c2)cc1OCC
 : 10, x, -0.5, x, 1.0%, x
- Cc1ccc(NC(=O)C2(C)CCCN2C)cc1C (stereo not given)
 : x, -2.2, -0.4, -4, 1.4%, 0
- CCC1=C(c2ccc(C)cc2)S(=O)(=O)N=C1N1CCC(C(=O)NCc2ccccc2Cl)CC1
 : 14, x, -0.2, x, 0.9%, x

Next part:
Below each SMILES: TRPML1 blocker, D2 ag, TRPML1 agonist, Six1-Eya2 blk, PINK1 expr mod, CtBP-E1A inh
- Cc1ccc(CCN2CC(C(=O)NCc3ccc4c(c3)OCO4)CC2=O)cc1 (stereo not given)
 : 18, 4.7, 1.1, 3, -1.1%, -1
- O=C(NCc1ccc2c(c1)OCO2)c1ccc2c(c1)N(Cc1cccc(Cl)c1)C(=O)c1ccccc1S2
 : -15, x, 2.3, x, -0.7%, x
- CCCc1nc2c(=O)n(C)c(=O)nc-2n(C)n1
 : -15, 54*, 1.0, 1, -1.3%, -6
- N#CCCn1cc(C(=O)N2CCCCC2)c(-c2ccc([N+](=O)[O-])cc2)n1
 : -7, -5.5, -0.3, 6, 2.5%, 4
- Cc1ccc(OCCCn2ccnc2)c([N+](=O)[O-])c1
 : 7, -2.1, -0.7, 3, -2.3%, 3
- Cc1ccc(C(=O)Nc2cccc(C(F)(F)F)c2)cc1NC(=O)c1c[nH]c2cc(C(F)(F)F)ccc2c1=O
 : 2, 0.6, -0.7, 2, -0.1%, 6
- Cc1ccc(NC(=O)COC(=O)COc2cccc3c2OC(C)(C)C3)cc1C
 : 4, 2.1, 0.5, 18, 0.0%, 6
- c1sc2[n+](c1C13CC4CC(CC(C4)C1)C3)CCS2
 : 45, -0.1, -0.3, 8, -1.4%, 1
- c1ccc(CCc2nc3ccccc3[nH]2)cc1
 : 6, -2.3, 0.3, 13, 2.1%, x
- COc1ccc(C2C3C=CCC(c4cccc(-c5ccc(C)cc5)c4)C3C(=O)N2Cc2ccccc2)cc1Cl (stereo not given)
 : -3&-10, -2.3, 0.1&0.2, -12, -1.3%, x
- Cc1ccccc1CNC(=O)c1ccc2nc(C(C)C)oc2c1
 : 1, x, -0.2, x, 0.6%, x
- CC(=O)Nc1c(C(=O)Nc2cccc(C)c2)nnn1-c1ccc(C)cc1
 : -12, x, -0.5, x, 12%, x
- COc1ccc(-c2cn3ccccc3n2)cc1[N+](=O)[O-]
 : 15, -2.2, 1.4, -2, 0.6%, -28
- Cc1ccc(-n2[nH]c(C)c(C=Nc3ccc(S(=O)(=O)Nc4nc(C)cc(C)n4)cc3)c2=O)c(C)c1
 : -6, -1.4, 0.2, -2, 14%, -9
- O=C(N/N=C/c1ccc(O)cc1)c1csc2ccccc12
 : -3, 0.7, 1.5, -13, 3.8%, -20
- N#CCCN(C(=O)COC(=O)C1CCN(S(=O)(=O)c2cccs2)CC1)c1ccccc1
 : -7, -1.4, -0.2, 1, -0.1%, -7
- NC(=NCCc1ccc(Cl)cc1)NS(=O)(=O)c1ccc(F)cc1
 : -20, 2.3, 0.3, 4, -3.1%, 1
- Cc1cc(=O)[nH]c(SCC(=O)Nc2ccc(Br)cc2)c1C#N
 : 29, -2.6, 1.7, -17, 16µM*, 3
- Cc1cc(N/N=C/c2ccncc2)c([N+](=O)[O-])cc1[N+](=O)[O-]
 : -10, 2.0, 0.0, 18, -0.7%, 3
- COc1ccc2[nH]c3c(=O)n(CCCCC(=O)N4CCCC4)c(=S)[nH]c3c2c1
 : 5, -1.4, -0.5, -20, 4.6%[38.3 µM], -24

Exported bar-delimited: 6 of the compounds above
SMILES | TRPML1 blocker | D2 ag | TRPML1 agonist | Six1-Eya2 blk | PINK1 expr mod | CtBP-E1A inh
Cc1ccc(CCN2CC(C(=O)NCc3ccc4c(c3)OCO4)CC2=O)cc1 (stereo not given) | 18 | 4.7 | 1.1 | 3 | -1.1% | -1
COc1ccc2[nH]c3c(=O)n(CCCCC(=O)N4CCCC4)c(=S)[nH]c3c2c1 | 5 | -1.4 | -0.5 | -20 | 4.6%[38.3 µM] | -24
CC(=O)Nc1c(C(=O)Nc2cccc(C)c2)nnn1-c1ccc(C)cc1 | -12 | x | -0.5 | x | 12% | x
Cc1ccc(-n2[nH]c(C)c(C=Nc3ccc(S(=O)(=O)Nc4nc(C)cc(C)n4)cc3)c2=O)c(C)c1 | -6 | -1.4 | 0.2 | -2 | 14% | -9
Cc1cc(N/N=C/c2ccncc2)c([N+](=O)[O-])cc1[N+](=O)[O-] | -10 | 2.0 | 0.0 | 18 | -0.7% | 3
N#CCCn1cc(C(=O)N2CCCCC2)c(-c2ccc([N+](=O)[O-])cc2)n1 | -7 | -5.5 | -0.3 | 6 | 2.5% | 4

The list goes on.
Below each SMILES: TRPML1 blocker, D2 ag, TRPML1 agonist, Six1-Eya2 blk, PINK1 expr mod, CtBP-E1A inh
- CSc1ccc(CNC(=O)Cc2csc3ccccc23)cc1
 : 0, x, 0.4, x, 0.0%, x
- CCc1ccc2oc(=O)cc(CN3CCOCC3)c2c1
 : -8, -2.5, -0.6, 3, -1.2%, 2
- COC(=O)c1nnn(-c2cccc(C)c2)c1C(=O)OC
 : 3, x, 1.2, x, 0.9%, x
- O=C(NC(c1ccc(-c2ccccc2)cc1)c1cnccn1)C1CCN(CCCOc2ccccc2)CC1 (stereo not given)
 : x, -3.7, 2.3, -15, 1.2%, -20
- COc1ccc(S(=O)(=O)N2CCN(C)CC2)cc1C
 : 9, -1.5, 0.0, 0, 2.3%, 5
- CCOC(=O)C(=O)N1CCC(C(=O)OC)CC1
 : -6, 1.9, 3.7, 1, 2.6%, 6
- CCN(CC)CC(=O)Nc1cc(N(C)C)nc2ccccc12
 : 37, -1.8, 0.5, -2, 1.0%, 8
- Cc1c(NC(=O)/C(C#N)=C/c2ccc(-c3cccc(Cl)c3)o2)c(=O)n(-c2ccccc2)n1C
 : 21, 0.1, 2.1, u, 8.1%, -20
- COc1ccc(NC(=O)COC(=O)CCNS(=O)(=O)c2ccccc2)cc1OC
 : 3, 1.5, 0.6, 1, -1.3%, 0
- C[C@H](CO)N1C[C@H](C)[C@@H](CN(C)Cc2ccc(Oc3ccccc3)cc2)Oc2c(NC(=O)C3CC3)cccc2C1=O
 : 4, 0.1, -0.5, -15, 4.1%, -10
- O=c1[nH]c(CSc2nnc(-c3cccnc3)n2C2CCCCC2)nc2ccccc12
 : 9, 0.1, -0.4, 1, 3.0%, -19
- COc1ccccc1NS(=O)(=O)/C=C/c1ccccc1
 : -9, 1.6, 1.7, -6, 5.2%, -1
- Cc1c(C(=O)NCCN2CCOCC2)oc2ccc(Br)cc12
 : 0, 0.5, 0.2, -1, -3.4%, 1
- CC(=O)NCCc1nc2cc(NC(=O)c3ccccc3C)ccc2n1C
 : 18, -4.3, 0.1, 0, 2.3%, -2
- CC(=O)Nc1ccc(S(=O)(=O)N2c3ccc(F)cc3CCC2C)cc1 (stereo not given)
 : 18, -2.7, 5.5, -5, 5.8%, -3
- Cc1cccc(OCCCC(=O)Nc2nccs2)c1
 : -16, 0.7, 0.9, 0, 5.7%, 4
- CCCCn1nnnc1C(C1CC1)N1CCN(C/C=C/c2ccccc2)CC1 (stereo not given)
 : x, -5.7, 0.1, 6, -0.1%, u
- Cc1ccc(N2CC(C(=O)Nc3nnc(SCC(=O)N4CCOCC4)s3)CC2=O)cc1 (stereo not given)
 : -7, -0.7, -0.2, -2, 0.8%, 2
- Nc1nc(Br)c2c(F)cccc2c1-c1ccccc1
 : 26, -0.3, -0.1, 11, 4.4%, 10
- COc1cc(CN2CC(=O)N(c3ccc(C)cc3)C2=S)cc(OC)c1OC
 : 3, 3.2, 0.5, -5, 6.2%, 42

In the list so far, these have a furan ring, fused or not:
Below each SMILES: TRPML1 blocker, D2 ag, TRPML1 agonist, Six1-Eya2 blk, PINK1 expr mod, CtBP-E1A inh
- COc1ccc2oc(C(=O)N3CCN(S(=O)(=O)c4cccc([N+](=O)[O-])c4)CC3)c(C)c2c1
 : 17, 3.1, 0.6, -18, 1.1%, -16
- Cc1c(NC(=O)/C(C#N)=C/c2ccc(-c3cccc(Cl)c3)o2)c(=O)n(-c2ccccc2)n1C
 : 21, 0.1, 2.1, u, 8.1%, -20
- Cc1c(C(=O)NCCN2CCOCC2)oc2ccc(Br)cc12
 : 0, 0.5, 0.2, -1, -3.4%, 1
